Screens: PubChem, National Center for Advancing Translational Sciences (NCATS)
TRPML1 blocker – qHTS for Inhibitors of the Human Mucolipin Transient Receptor Potential 1 (TRPML1); AID 624415, 2012; hit rate 0.02% among 390,000; TRPML1-inducible cells, Ca2+ dye fluorescence, FDSS; stronger effect = lower value; inhibition of EC80 agonist-evoked calcium signal; activity change, negative = inhibition, % (concentration not given with the values); Mucolipin-1 (Homo sapiens), Q9GZU1; in the data active means activity change below about -50%; inconclusive means about -30% to -50%; inactive means above about -30%;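 note: stimulus is agonist 54-4 at its EC80 concentration; % is set by controls: 0 for no effect and ±100 for the full control effect; compound concentration not given in the record; the text of the record puts the active cut at -80%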
Target sequence (Q9GZU1 whole entry, looked up): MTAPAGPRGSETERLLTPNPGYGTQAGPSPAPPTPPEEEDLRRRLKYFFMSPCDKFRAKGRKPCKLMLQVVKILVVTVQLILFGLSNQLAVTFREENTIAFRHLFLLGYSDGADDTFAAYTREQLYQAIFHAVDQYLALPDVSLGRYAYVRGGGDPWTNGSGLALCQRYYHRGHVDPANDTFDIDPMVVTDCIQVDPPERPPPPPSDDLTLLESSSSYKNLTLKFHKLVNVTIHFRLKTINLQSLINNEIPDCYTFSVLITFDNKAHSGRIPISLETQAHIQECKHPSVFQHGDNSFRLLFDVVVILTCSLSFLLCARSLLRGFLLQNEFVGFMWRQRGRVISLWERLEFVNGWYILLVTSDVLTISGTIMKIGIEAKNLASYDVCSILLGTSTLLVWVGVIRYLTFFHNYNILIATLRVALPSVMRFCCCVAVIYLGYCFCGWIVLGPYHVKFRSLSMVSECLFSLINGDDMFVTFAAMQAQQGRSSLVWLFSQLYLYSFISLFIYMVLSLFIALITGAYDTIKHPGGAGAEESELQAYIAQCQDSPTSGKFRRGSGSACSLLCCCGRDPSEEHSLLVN
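Calcium fluorescence in TRPML1-DL cells induced overnight with Tet: a 110 s read after compound pin addition, then a 110 s antagonist read after challenge with 54-4 at 4 uM final (EC80).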
ClpP mod – qHTS Assay for Activators of ClpP; hit rate 1.9% among 340,000; purified B. subtilis ClpP, FRET peptide cleavage, 20 min; Potency, µM (top dose mostly 57.5 µM), without a hit: top-dose activity change, negative = active; ATP-dependent Clp protease proteolytic subunit (Bacillus subtilis (strain 168)), P80244; active = well fitted falling curve with a large enough effect; inconclusive = small, poorly fitted or top-dose-only effect; inactive = no such curve, though single readings can be large or run the other way; note: potency is the fitted concentration of half-maximal effect; the source files actives as falling curves though it sought activators and does not explain the sign; nearly all actives have a fitted effect of over 65% in size; many hits overshoot -100%
Target sequence (P80244 whole entry, looked up): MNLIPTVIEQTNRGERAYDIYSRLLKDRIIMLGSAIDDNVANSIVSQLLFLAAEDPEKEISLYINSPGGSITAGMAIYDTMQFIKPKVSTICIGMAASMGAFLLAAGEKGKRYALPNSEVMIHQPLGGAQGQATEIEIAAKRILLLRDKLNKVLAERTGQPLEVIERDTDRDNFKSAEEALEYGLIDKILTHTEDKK
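Buffer: 100 mM Tris/HCl pH8, 100 mM KCl, 0.05% low protease BSA, 2.5% glycerol, 0.01% Tween-20. ClpP 10 microg/mL final; 20 min RT; delta FRET normalized to ADEP and DMSO controls.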
Menin-MLL FL inh – qHTS Assay for Inhibitors Targeting the Menin-MLL Interaction in MLL Related Leukemias: Competition With Fluorescein Labeled MLL-derived Peptide; FP activity change, % at 61.4 µM; 290,000 tested, under 10 active; AID 1766, 2009; Fluorescence polarization, fluorescein-MLL peptide displacement from menin; inconclusive = falling polarisation curve, or a change in total fluorescence; inactive = total fluorescence flat and polarisation flat or rising; no compound was filed as active; the % refers to the polarisation; negative = inhibition;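 note: % of control where 0% means no effect; inhibitors lower the polarisation; unlabelled MLL peptide was the positive control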
TRPML1 agonist – qHTS for Agonists of the Human Mucolipin Transient Receptor Potential 1 (TRPML1); Mucolipin-1 (Homo sapiens), Q9GZU1; TRPML1-expressing cells, Ca2+ dye fluorescence, FDSS; host cell line not named in the record; reference of the full effect not given here; activation, % (concentration not given with the values); hit rate 0.12% among 410,000; in the data active = activation above about 50%; inconclusive = about 30% to 50%; inactive = below about 30%; note: 0% is about no effect; the text of the record puts the active cut at 80%
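Agonist activity was taken from a 110 s kinetic Ca2+ dye read on the FDSS after pinning compounds onto TRPML1-DL cells. The cells were seeded at 1,500/well with Tet inducer, incubated about 16 h, then dye-loaded at room temperature.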
gsp antagonist – qHTS for Antagonists of gsp, the Etiologic Mutation Responsible for Fibrous Dysplasia/McCune-Albright Syndrome: qHTS; AID 624288, 2012; gsp-mutant cells, cAMP HTRF, 30 min; control for the full effect not named in the record; hit rate 0.4% among 340,000; Potency, µM (doses to about 76.9 µM), for inactives: at the highest dose activity change, negative = inhibition, actives largely listed as inhibitors; active = falling curve of any shape with a large fitted effect; inconclusive = falling curve, mostly with a smaller effect; inactive = flat or rising curve; cell line not stated here;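 note: intracellular cAMP measured with PDE inhibitor Ro 20-1724 present during compound exposure; potency is the fitted concentration of half-maximal effect; % is set by controls: 0 for no effect and ±100 for the full control effect; nearly all actives have a fitted effect of over 65% in size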
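Measurement of cellular cAMP by homogeneous time-resolved fluorescence following a 30 min compound exposure at 37C. The PDE inhibitor […] was present throughout; the assay buffer was DPBS with 0.05% BSA and 0.005% Tween 20.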
gsp agonist – qHTS for Agonist of gsp, the Etiologic Mutation Responsible for Fibrous Dysplasia/McCune-Albright Syndrome: qHTS | gsp mutant cells, cAMP HTRF, 30 min; control for the full effect not named in the record | Potency, µM (highest dose often 76.9 µM), for inactives: at the top dose activation (cAMP increase), usual class: activators | hit rate 0.13% among 340,000 | AID 624287, 2012; active = well fitted activation curve with a large enough effect; inconclusive = small, poorly fitted or top-dose-only effect, or another doubt; inactive = no such curve, though single readings can be large or run the other way; cell line not stated here;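 note: phosphodiesterase inhibitor Ro 20-1724 added with compounds to block cAMP breakdown; potency is the fitted concentration of half-maximal effect; nearly all actives have a fitted effect of over 60% in size; about a fifth of the inactives were tested at one dose only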
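Cells in DMEM/10% FBS with G418 were pretreated with compounds in DMSO plus […] (300 uM stock) for 30 min at 37C. cAMP was measured by HTRF (cAMP-d2 plus anti-cAMP antibody-K) after 30 min at room temperature.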
Active calls of the source: *; ? = inconclusive; nt = not tested or not shown; & = joins results of further samples; [ ] = remark or other dose.

Under each structure: TRPML1 blocker, ClpP mod, Menin-MLL FL inh, TRPML1 agonist, gsp antagonist, gsp agonist
CC1=NNC(=O)C1CC(=O)N/N=C/c1ccc(C)o1 (configuration not stated)
 : -2, 0.1%, -1.8, -0.4, 11%, 2%[15.4 µM]
O=C(C1CCN(S(=O)(=O)c2cccs2)CC1)N1CCN(c2ccccc2O)CC1
 : 18, -1.1%, nt, 1.0, -14%, 8%
CC(=O)N1c2ccccc2C(C)(c2ccccc2)CC1(C)C (configuration not stated)
 : 18, 0.6%, 1.0, -0.5, -11%, 24%
CCS(=O)(=O)N1CCN=C1SCc1ccc(F)cc1
 : -7, 4.4%, nt, -0.7, 15%, 1%
O=S(=O)(NCCOc1ccc(F)cc1)c1ccc2c(c1)OCCO2
 : -8, 0.1%, -0.1, -0.2, -5%, 19%
CC(C)OCCCN1C(=O)c2[nH]nc(-c3ccccc3O)c2C1c1ccc(OCc2ccccc2)cc1 (configuration not stated)
 : -23, -11%, nt, 1.0, nt, nt
CCOC(=O)CCCN1CC(O)=C(c2nc3ccccc3s2)C1=N
 : 11, nt, 1.9, 0.0, -6%, -17%
CC(=O)c1ccc(Cc2ncc(C(F)(F)F)cc2Cl)s1
 : -18, -1.6%, -0.4, 0.6, -1%, -30%[inhibitor]
CC(=O)O[C@]1(C(C)=O)CC[C@H]2[C@@H]3C=C(C)C4=CC(=O)CC[C@]4(C)[C@H]3CC[C@@]21C
 : 46, 0.6%, 4.1&-6.4, -0.3, -20%, nt
Cc1noc(/C=C/c2cccs2)c1S(=O)(=O)N1CCC(C(=O)NCCCN2CCC(C)CC2)CC1
 : -23, 0.3%, 4.8, 0.3, 9%, ?
COc1ccccc1/C=C/C(=O)OCC(=O)NC1CCCCCC1
 : -16, -1.9%, nt, 0.4, 1%, -16%[15.4 µM]
O=C(Nc1ccc(F)cc1F)C1CCN(C(=O)c2ccc(Br)cc2)CC1
 : 7, -2.4%, -2.8, 0.6, -7%, -51%[inhibitor]
CC(C)(C)c1ccc(OCCNC(=O)Cc2ccc(F)cc2)cc1
 : -13, 1.7%, 5.2, -0.3, -8%, 5%
O=C(Nc1nccs1)c1cccc(N2C(=O)c3cccc4c([N+](=O)[O-])ccc(c34)C2=O)c1
 : -1, -0.3%, ?, 0.3, -1%, ?
O=Nc1c(O)[nH]c2ccc(F)cc12
 : -2, nt, 3.0, 0.2, 4%, -45%[inhibitor]
CSc1cnnc2ccccc12
 : 3, -4.7%, nt, 0.0, 4%, -6%
COCCNC(=O)CN(C(=O)Cn1nnc2ccccc21)c1cccc(C)c1C
 : -2, -1.9%, 1.3, -0.1, 2%, -2%[15.4 µM]
O=C(c1ccc(Oc2ccc(C(F)(F)F)cc2[N+](=O)[O-])cc1)N1CCOCC1
 : 16, 2.1%, 0.4, 0.1, 10%, 2%
O=C(COc1ccccc1)OCc1cc2ccccc2[nH]c1=O
 : -10, -8.9%, 0.7, 0.3, -8%, 11%
CCCc1ccc(-c2cc(C(=O)NCCc3ccc(S(N)(=O)=O)cc3)c3ccccc3n2)cc1
 : -8, 32µM*, -0.4, 2.1, -12%, -6%
C[N+]12CCCCC1[C@@H](CO)CCC2 (some centres not stated)
 : 12, -0.1%, 7.1, 0.3, 9%, ?
CCCOC(=O)C1[C@H]2C(=O)N(CC3CCCO3)C[C@]23C=C[C@H]1O3 (some centres not stated)
 : -4, 0.1%, 0.8, -0.5, 2%, 13%
COc1ccc(-c2oc(=O)c3cc(OC)c(OC)cc3c2-c2ccc3c(c2)OCO3)cc1
 : -9, ?, nt, -0.4, -16%, nt
CC1CCCCN1S(=O)(=O)c1ccc2c(c1)oc(=O)n2CC(=O)O (configuration not stated)
 : 6, 0.3%, 2.6, -0.7, -5%, -2%
Cc1ccc(NC(=O)CCn2nc([N+](=O)[O-])cc2C)nc1
 : -8, -1.5%, -2.0, -0.1, 3%, 26%
C=CCN(CC=C)CC(O)Cn1c2ccccc2c2ccccc21 (configuration not stated)
 : 38, -5.5%, 1.0, 1.6, 3%, 5%
COC(=O)/C=C/c1c(C)nc(NCc2ccccc2)nc1Cl
 : 8, -2.0%, 11, -0.3, -6%, 16%[15.4 µM]
Cc1c(C(=O)N(C)c2cccc(Cl)c2)cnn1-c1ccccc1
 : -15, 0.3%, -3.2, 0.1, -7%, -19%
O=C(CCNS(=O)(=O)c1cccs1)N1CCc2ccccc2C1
 : 9, -4.8%, -1.3, -0.6, 5%, -11%
CCC(=O)N1CCc2cc(S(=O)(=O)CCC(=O)N3CCN(c4ccccc4F)CC3)ccc21
 : 21&-9, -0.5%&-0.2%, nt, 1.2&-0.5, -13%, -1%
CCC1CN(C(=O)N2CCC(C(=O)NCc3ccccc3OC)CC2)c2ccccc2O1 (configuration not stated)
 : 40, 0.7%, nt, -0.4, -19%, ?
COc1ccc(Nc2c(-c3ccccn3)nc3ccc(Cl)cn23)cc1
 : -7, 0.0%, nt, -0.6, nt, nt
O=C(COc1coc(CN2CCc3ccccc32)cc1=O)NCCc1ccccc1
 : 1, 0.2%, nt, 1.1, -6%, -14%
Cc1cc(C)nc(S/C=C/C(=O)c2ccccc2F)n1
 : 1, 35µM*, -2.1, 2.2, 1%, -11%[15.4 µM]
CC(C)(C)C1CCC2(CC1)NC(CO)(CO)CO2 (configuration not stated)
 : -15, 0.2%, 4.2, -0.4, 0%, ?
CC(C)[C@H](NC(=O)c1ccccc1)C(=O)OCC(=O)Nc1sccc1C(N)=O
 : 9, nt, nt, -0.8, -15%, -21%
CCC(NC(=O)C1CCCC1)c1ccccc1 (configuration not stated)
 : 53, -1.0%, nt, 1.5, 4%, -11%[15.4 µM]
CC(C)c1c(C(=O)N/N=C/c2ccc(Cl)cc2Cl)nnn1-c1nonc1N
 : -17, 1.2%, nt, 2.5, -9%, ?
CCOC(=O)c1ccc(NC(=S)N2CCC(C(N)=O)CC2)cc1
 : 8, -1.1%, 7.6, 0.3, ?, -4%
NS(=O)(=O)c1cnccc1Nc1cccc(F)c1
 : -24, nt, nt, 0.6, -6%, 4%[15.4 µM]

Entries of single compounds from above.
C=CCN(CC=C)CC(O)Cn1c2ccccc2c2ccccc21 (configuration not stated) in the list: TRPML1 blocker: 38; ClpP mod: -5.5%; Menin-MLL FL inh: 1.0; TRPML1 agonist: 1.6; gsp antagonist: 3%; gsp agonist: 5%
Cc1cc(C)nc(S/C=C/C(=O)c2ccccc2F)n1 in the list: TRPML1 blocker: 1; ClpP mod: 35µM*; Menin-MLL FL inh: -2.1; TRPML1 agonist: 2.2; gsp antagonist: 1%; gsp agonist: -11%[15.4 µM]

Later entries
Molecule,TRPML1 blocker,ClpP mod,Menin-MLL FL inh,TRPML1 agonist,gsp antagonist,gsp agonist
CN(C)c1nc(Oc2ccc(/C=N/O)cc2)nc(N(C)C)n1,-13,-6.2%,-2.3,-0.2,-2%,3%
CC1=C(C(=O)Nc2ccc(CC(=O)NCc3ccccc3C)cc2)SCCO1,-12,-1.7%,nt,1.1,13%,?
CCOC(=O)C1=C(COC(=O)CCNS(=O)(=O)c2ccc(NC(C)=O)cc2)NC(=O)NC1C (configuration not stated),0,nt,nt,1.4,11%,-25%[15.4 µM]
CC(=O)c1ccc(NC(=O)CCCC(=O)c2ccccc2)cc1,nt,0.4%,10,nt,14%,2%
CC1CCCCC1NC(=O)C1CCC(CNS(=O)(=O)c2ccccc2)CC1 (configuration not stated),5,-14%,4.7,1.0,-5%,17%[15.4 µM]
Cc1csc(=O)n1CCC(=O)OCC(=O)NCc1ccccc1,6,-3.0%,nt,-0.2,nt,8%
COc1ccc(CNC(=O)CSc2nc3ccsc3c(=O)n2Cc2ccccc2Cl)cc1,-10,-0.6%,nt,0.3,nt,nt
Cc1nnc(NC(=O)c2ccc3c(c2)NC(=O)CS3)s1,35,-6.6%,nt,0.2,-4%,-5%

As a working copy, some entries already given.
Molecule,TRPML1 blocker,ClpP mod,Menin-MLL FL inh,TRPML1 agonist,gsp antagonist,gsp agonist
CC(=O)c1ccc(NC(=O)CCCC(=O)c2ccccc2)cc1,nt,0.4%,10,nt,14%,2%
CC1CCCCC1NC(=O)C1CCC(CNS(=O)(=O)c2ccccc2)CC1 (configuration not stated),5,-14%,4.7,1.0,-5%,17%[15.4 µM]
Cc1csc(=O)n1CCC(=O)OCC(=O)NCc1ccccc1,6,-3.0%,nt,-0.2,nt,8%
COc1ccc(CNC(=O)CSc2nc3ccsc3c(=O)n2Cc2ccccc2Cl)cc1,-10,-0.6%,nt,0.3,nt,nt
Cc1nnc(NC(=O)c2ccc3c(c2)NC(=O)CS3)s1,35,-6.6%,nt,0.2,-4%,-5%

Next part.
Molecule,TRPML1 blocker,ClpP mod,Menin-MLL FL inh,TRPML1 agonist,gsp antagonist,gsp agonist
Cc1nc2c(s1)sc1ccccc12,-5,0.9%,7.3,-0.1,0%,-2%
O=[N+]([O-])c1sccc1CS(=O)(=O)c1ccccc1,10,nt,2.3,1.1,-4%,-32%
CCCCOc1ccc(C2CCC(C(C)=O)C(C)C2)cc1 (configuration not stated),8,nt,2.9,0.3,4%,-14%[15.4 µM]
COc1ccc(-c2cc(C(=O)N3CCN(Cc4ccc5c(c4)OCO5)CC3)on2)cc1OC,-3,-0.3%,nt,1.4,-22%,1%
NC(=O)CC(NC(=O)c1ccccc1)c1ccc(NCC2CC2)c([N+](=O)[O-])c1 (configuration not stated),29,0.3%,0.5,-0.1,1%,nt
COc1cccc(NC(=O)Cn2nnc(C(=O)NCCc3ccccc3)c2N)c1,-5&3,-2.5%&3.4%,4.5,-0.4&1.0,0%,?
Cc1ccc2nc(N3CCN(C(=O)c4cccs4)CC3)c(C#N)cc2c1,21,-8.7%,-2.4,4.4,-15%,14%
CCCCn1c(=O)c(CCC(=O)OCC(=O)NC(=O)NCCC(C)C)nc2ccccc21,6,4.4%,1.8,1.9,-3%,1%
COc1cc2[nH]c(=S)nc(NCc3ccc(C)cc3)c2cc1OC,-22,1.3%,-3.4,1.3,-3%,?
